E coli growth – E. coli growth inhibition; OD600 absorbance (concentration not given with the values); Escherichia coli growth, OD600, 23 h; stronger effect = lower value; hit rate 0.21% among 330,000;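 active means OD600 absorbance below the run mean of sample wells minus 3.6 SD, in any replicate, cut at about 0.56 in these data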;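 further: stock transfer was 300 nL into about 60 µL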
FGF22 binding – shifts melting point of recombinant human FGF22; Q9HCT0; recombinant FGF22 thermal shift, SYPRO orange fluorescence; percent of sucrose octasulfate shift, DMSO zero; calls only at 9.99 µM; hit rate 1.5% among 340,000; AID 651658;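 active means melting point raised past a set limit in the mean and every replicate; inconclusive means no clear call; three in four hits are not shown here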
Target sequence (Q9HCT0 whole entry, looked up): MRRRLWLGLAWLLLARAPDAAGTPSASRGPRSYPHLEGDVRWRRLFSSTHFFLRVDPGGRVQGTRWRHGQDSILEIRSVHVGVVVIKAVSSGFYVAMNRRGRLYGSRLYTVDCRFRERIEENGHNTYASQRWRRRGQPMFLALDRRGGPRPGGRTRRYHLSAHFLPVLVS
HNF4A DNA FP – change in binding of human HNF4 alpha to DNA; P41235; HNF4a-FITC DNA binding, fluorescence polarization, 1 h; activity change, % at 10 µM; hit rate 0.3% among 360,000; AID 1224865; in the data active means activity change above about 30%, passing the limit was not always enough;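 further: controls were the assay level and a saturating level of protein; the project sought stronger binding though the title names inhibitors; some compounds called inactive have numbers as strong as hits; positive values seem to mean higher polarization but the record does not say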
RanGTP-Impb inh – disruptors of Ran-importin-beta complex formation – biochemical, FRET, CFP-Ran, YFP-importin-beta, homogeneous, primary screen. cell-free CFP-Ran/YFP-importin-beta FRET ratio. inhibition, % (test concentration not listed). hit rate 1.1% among 300,000. AID 2216;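 active means most replicates above 15%; inconclusive means exactly half above 15%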;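 further: 0% = DMSO wells and 100% = Ran loaded with GDP instead of GTP; wells of about 40 µL received 100 nL stock; the first replicate is given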
AF4-AF9 inh – blocks AF4 peptide binding to human AF9; inhibition, % at 10 µM; P42568; AID 651704; hit rate 0.47% among 350,000; AlphaScreen, biotin-AF4 peptide binding to FLAG-AF9;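 active means every replicate reaching a set inhibition limit, whatever the replicate mean, cut at about 25% in these data; inconclusive means mean inhibition reaches that limit but some replicates miss it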;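 further: 0% = plate neutral control median and 100% = total signal loss; the record names both 10 and 1 µM as test concentration; the first replicate is given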
Target sequence (P42568 whole entry, looked up): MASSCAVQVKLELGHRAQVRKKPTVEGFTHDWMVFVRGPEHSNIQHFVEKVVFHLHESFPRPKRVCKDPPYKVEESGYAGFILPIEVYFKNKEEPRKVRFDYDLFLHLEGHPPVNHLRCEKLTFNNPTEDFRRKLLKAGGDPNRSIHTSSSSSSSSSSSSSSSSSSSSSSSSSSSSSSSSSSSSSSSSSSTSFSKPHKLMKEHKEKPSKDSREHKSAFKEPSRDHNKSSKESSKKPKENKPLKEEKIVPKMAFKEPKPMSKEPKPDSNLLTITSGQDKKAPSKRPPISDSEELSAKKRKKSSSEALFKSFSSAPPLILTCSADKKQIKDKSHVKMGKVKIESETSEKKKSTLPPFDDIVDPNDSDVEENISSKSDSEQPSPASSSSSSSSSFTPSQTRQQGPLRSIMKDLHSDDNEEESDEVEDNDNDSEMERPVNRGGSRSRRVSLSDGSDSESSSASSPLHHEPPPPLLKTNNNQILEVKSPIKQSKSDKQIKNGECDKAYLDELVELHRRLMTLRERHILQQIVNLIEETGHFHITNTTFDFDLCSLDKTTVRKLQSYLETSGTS
Vif A3G – HIV-1 Vif–A3G interaction blockers – biochemical, TR-FRET, GST-Vif 1-94, biotin-A3G peptide, dose response retest, primary screen (AID 1117319); TR-FRET GST-Vif / biotin-A3G peptide binding; higher % means a stronger effect; test concentration not given here; strong numbers were not always called active; inhibition, %; hits with a dose series show IC50 in µM; hit rate 0.57% among 260,000;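 active means above the screen mean plus three standard deviations and confirmed in dose response; inconclusive means results disagree or hit not tested in dose response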;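 further: Vif residues 1-94 fused to GST binding biotinylated APOBEC3G peptide 110-148; 0% = full assay without inhibitor and 100% = GST in place of GST-Vif; retest series ran down from 100 µM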
UCH37 DUB inh – blocks the human deubiquitinase UCH37; purified proteasome/UCH37, Ub-AMC cleavage fluorescence; hit rate 0.33% among 330,000; Q9Y5K5; inhibition, % (no concentration beside the values); AID 588478;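 active means mean of two replicates above 20%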;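 further: 0% = compound-free wells with enzyme and 100% = wells lacking proteasome; stock transfer was 100 nL into about 20 µL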
Target sequence (Q9Y5K5 whole entry, looked up): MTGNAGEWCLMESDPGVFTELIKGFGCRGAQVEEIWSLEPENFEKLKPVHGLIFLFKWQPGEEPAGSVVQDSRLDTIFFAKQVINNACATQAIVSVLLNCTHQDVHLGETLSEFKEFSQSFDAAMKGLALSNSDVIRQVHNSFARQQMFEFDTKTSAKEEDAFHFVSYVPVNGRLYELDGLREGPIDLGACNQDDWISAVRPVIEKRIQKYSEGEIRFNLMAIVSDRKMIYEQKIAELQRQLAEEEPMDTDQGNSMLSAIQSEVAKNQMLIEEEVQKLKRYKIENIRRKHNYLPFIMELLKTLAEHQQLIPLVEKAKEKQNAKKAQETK
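assay system = human UCH37 enzyme supplied as purified proteasome complex | amount = proteasome at 0.15 nM in the dispensed enzyme solution | schedule = 30 min compound-proteasome preincubation then 25 min substrate reaction, room temperature | measured by = fluorescence, ex 355 nm, em 460 nm | benchmarks = no-proteasome wells (full inhibition) and compound-free wells (no inhibition)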
* = called active by the depositor; i = inactive; ? = inconclusive; nt = not tested or not shown; & = joins results of further samples.

Value order: FGF22 binding	RanGTP-Impb inh	E coli growth	Vif A3G	AF4-AF9 inh	HNF4A DNA FP	UCH37 DUB inh
CC1=C(C(=O)NC2CCC(C)CC2)C2(CCC(C)CC2)OC1=O (stereo unspecified)
    i	4.0	0.782	0.7%	6.3	-6.5	4.8
O=C1CC(c2ccccc2)CC(O)=C1C=NCCN1CCN(C(=O)Nc2ccccc2)CC1 (stereo unspecified)
    nt	3.5	0.664	4.4%	nt	-0.7	4.6
Cc1cc(=O)[nH]c(SCC(=O)N2CCCC(C)C2)n1 (stereo unspecified)
    i	5.1	0.702	nt	-0.1	4.6	0.5
O=C(COC(=O)COc1ccccc1[N+](=O)[O-])NC1CCCC1
    nt	-1.7	0.699	nt	nt	0.9	1.3
CC(C)CN(C(=O)CSc1nnc(-c2ccco2)o1)c1c(N)n(Cc2ccccc2)c(=O)[nH]c1=O
    i	-1.6	0.729	-4.2%	1.5	0.4	-5.2
O=C(O)c1cccc(-n2cccc2/C=C2/SC(=O)N(CC(=O)N3CCCC3)C2=O)c1
    i	3.5	0.662	nt	-8.2	-20.7	12.0
O=C(c1ccccc1Br)N1CCN(c2ccc([N+](=O)[O-])c(N3CCOCC3)c2)CC1
    i	-4.9	0.729	-2.0%	6.7	-4.5	9.7
CC(=O)c1ccc(NC(=S)NC(NC(=O)c2ccco2)C(Cl)(Cl)Cl)cc1 (stereo unspecified)
    nt	-3.5	0.641	25.0%&7.2%	nt	27.8	3.1
COc1ccc2c(C(=O)CN3CCN(CCO)CC3)c[nH]c2c1
    nt	1.9	0.682	7.1%	nt	1.7	1.8
Cc1ccc(Nc2nnc(SCC(=O)Nc3ncc(S(=O)(=O)c4ccc([N+](=O)[O-])cc4)s3)s2)cc1
    nt	-0.4	0.715	6.3%	nt	1.7	1.1
COc1ccc(OC)c(-c2nc(CN3CCN(C(=O)c4ccco4)CC3)c(C)o2)c1
    i	2.3	0.681	nt	-1.6	0.1	-20.0
O=C(Nc1ccccc1C(=O)NCC1CCCO1)c1ccco1 (stereo unspecified)
    nt	5.3	0.698	-0.8%	nt	0.1	3.3
CN=C1S/C(=C\c2ccc(Cl)cc2)C(=O)N1C
    i	0.7	0.665	-0.7%	8.5	2.2	3.6
O=C1C(=O)N(Cc2ccncc2)C(c2ccccc2F)/C1=C(\O)c1ccc2c(c1)OCCO2 (stereo unspecified)
    i	0.9	0.677	-4.5%	0.0	-1.2	13.5
CCCCn1c(N)c(N(CC(C)C)C(=O)C2=COCCO2)c(=O)[nH]c1=O
    i	nt	0.641	3.9%	0.6	-2.1	1.7
CC(C)(C)c1ccc2c(c1)C(c1ccc3c(c1)OCO3)CC(=O)O2 (stereo unspecified)
    i	nt	nt	nt	-2.6	-2.7	nt
CCOC(=O)c1cc(NC(=O)SCC(=O)O)c(C)nc1C
    nt	1.5	0.697	-0.8%&-1.0%	nt	-1.0	-0.7
Cc1cc2ncn(CCC(=O)NC3CCCC3)c2cc1C
    i	1.4	0.702	11.3%	-1.8	0.1	0.6
CN(C)c1ccc(N=Cc2ccco2)cc1
    nt	nt	0.686	?	nt	4.9	4.1
COc1cccc(NC(=S)NC(Cc2ccccc2)c2ccccc2)c1 (stereo unspecified)
    i	nt	nt	7.2%	0.7	9.4	nt
COCCCNC(=S)NNC(=O)C(O)(c1ccccc1)c1ccccc1
    i	2.5	0.646	?	-0.8	1.3	2.4
Cc1ccc(C(=O)NNC(=O)c2cccc(S(=O)(=O)N3CCN(c4ccccc4)CC3)c2)cc1
    nt	0.0	0.671	2.1%	nt	2.2	4.4
CCCCC(Sc1nc(N)c(NC(=O)c2ccc(OCC)cc2)c(=O)[nH]1)C(=O)O (stereo unspecified)
    i	2.4	0.668	1.9%	-2.1	1.1	-0.1
Cc1ccc(C)c(C(=O)CSc2nc(N)cc(=O)[nH]2)c1
    i	3.5	0.669	10.2%	-2.2	1.0	5.6
O=C(c1ccco1)N1CCN(S(=O)(=O)c2ccc3[nH]c(=O)oc3c2)CC1
    nt	3.5	0.643	-9.2%	nt	-0.8	2.7
COc1ccc(-c2cc3c(=O)n(CC(=O)Nc4ccc(Cl)cc4)nc(C)n3n2)cc1
    i	-1.5	0.699	nt	-3.4	0.4	-6.5
O=C1c2ccccc2C(=O)N1Cc1ccccc1F
    i	-3.4	0.65	nt	-2.5	0.5	6.8
Cc1ccc(-n2c(SCC(=O)Nc3cccc(S(=O)(=O)NC4=NCCCCC4)c3)nc3ccccc3c2=O)cc1
    i	1.2	0.717	-98.2%	-2.8	0.4	5.6
CCCCCC1CC(/C(C)=N/NC(N)=O)OC1=O (stereo unspecified)
    nt	-1.6	nt	?	nt	0.8	nt
CC(O)[C@H]1CN=C(N)N1CC(C)(C)C (stereo partly specified)
    i	-0.4	nt	nt	-1.7	2.8	1.4
CCCCSc1nc(C)cc(NC(=S)Nc2ccc(OC)cc2)n1
    nt	1.3	0.734	-0.1%	nt	-3.6	3.3
COc1ccc(Cc2nc(-c3ccccn3)no2)cc1OC
    i	nt	0.722	nt	-0.5	-7.5	4.6
CC1(C)CC(=O)C2=C(C1)OC(N)=C(C#N)C2c1ccc[nH]1 (stereo unspecified)
    nt	-1.6	0.689	1.9%	7.2	-2.4	2.0
COc1ccc(NCN2C(=O)CCC2=O)cc1
    nt	5.1	0.7	9.6%	nt	-4.2	1.8
O=C(CCc1ccccc1)Nc1ccccc1C(=O)NCc1ccco1
    nt	1.9	0.727	6.9%	nt	1.0	2.2
COc1cc(NC(=O)C2CC2C)c(C(=O)O)cc1OC (stereo unspecified)
    nt	-0.2	0.704	-12.5%	nt	-0.2	1.7
Cn1cccc1Cc1nnc(SCC(=O)Nc2ccc(Cl)cc2)n1-c1ccc(F)cc1
    i	-0.4	0.733	22.5%	10.1	0.6	2.9
COc1ccc(Cl)cc1Cn1c(C)c(C(=O)NCc2cccc([N+](=O)[O-])c2)sc1=O
    i	nt	nt	nt	2.7	1.5	nt
C=CCNC(=S)N1CCN(Cc2ccccc2)CC1
    i	-3.8	0.656	nt	-1.1	7.0	2.7
CCOc1ccc(C=NNc2ccc(S(=O)(=O)Nc3ccccc3C(=O)O)cc2[N+](=O)[O-])cc1
    i	nt	0.622	4.9%	6.8	-33.8	17.1
COc1ccc(C(=O)NCc2c(C)nn(Cc3ccccc3)c2C)cc1S(=O)(=O)N1CCOCC1
    i	nt	0.661	-0.4%	-1.1	3.1	-0.7
CCCCCN(C(=O)CCC(=O)OCc1ccc(C(C)(C)C)cc1)c1c(N)n(CCCC)c(=O)[nH]c1=O
    i	2.4	0.722	-6.3%	-1.1	0.5	3.5
CC(C)(C)OC(=O)N1CC(O)CC1C(=O)OCC(=O)c1ccc(-c2ccccc2)cc1 (stereo unspecified)
    i	-0.4	0.651	16.9%	-19.2	2.8	3.7
COc1ccc(CCNC(=O)C2CC(=O)N(c3ccc(C)cc3)C2)cc1 (stereo unspecified)
    i	6.2	0.683	nt	1.4	-2.6	0.6
O=C(OCC(=O)N1CCN(c2ccccc2)CC1)c1ccc2ncsc2c1
    nt	nt	0.694	?	nt	-1.4	0.1
CCn1c(SCC(=O)Nc2cccc(S(=O)(=O)N(C)c3ccccc3)c2)nnc1C1CC1
    i	nt	0.656	-12.6%	-3.4	-2.1	2.4
CCCCN(C(=O)c1cnccn1)c1c(N)n(CCC)c(=O)[nH]c1=O
    i	nt	0.702	-0.6%	1.3	-0.5	0.9
Cc1cc(NC(=O)C23CC4CC(CC(C4)C2)C3)n[nH]1
    i	-1.6	0.664	-1.0%	-0.8	0.1	-1.2
COc1cccc(NC(=O)CSc2nc3ccccc3nc2N2CCCC2)c1
    i	0.3	0.771	nt	-3.2	-1.9	-8.2
Fc1ccc(Br)cc1C1C=C(c2ccc(Br)cc2)Nc2ncnn21 (stereo unspecified)
    nt	-19.0	0.74	-8.4%&0.9%	nt	-7.6	-11.1
COCCNC(=O)/C(C#N)=C/c1ccc(-c2ccc(OC)cc2[N+](=O)[O-])o1
    nt	4.4	nt	1.6%	nt	3.1	51.9*
O=C1N(C2CCCC2)C[C@@H]2C[C@@H](c3cccn3-c3nccs3)N3CCC[C@@]123
    nt	-0.2	0.68	-4.2%	1.4	5.8	1.5
Cc1ccc([N+](=O)[O-])cc1S(=O)(=O)Nc1ccc(C(=O)NCc2ccccn2)cc1
    i	6.8	0.625	1.9%	-5.8	2.9	3.3
COc1ccccc1OCC(=O)NN1Cc2ccccc2C1=N
    nt	-5.6	0.707	2.3%	nt	-2.5	6.3
Cc1cnc(NC(=O)c2c(O)c3cccc4c3n(c2=O)CCC4)s1
    nt	-0.1	0.772	12.6%	nt	nt	-2.0
O=C(O)C(Cc1ccccc1)N1C(=O)c2c(Cl)c(Cl)c(Cl)c(Cl)c2C1=O (stereo unspecified)
    nt	-4.4	0.692&0.616	nt	-3.8	-3.6	2.3
CCOc1ccccc1NC(=O)CSc1ncnc2c1oc1ccccc12
    nt	0.8	0.698	-193.2%	nt	0.2	3.0
CC(C)(C)NCC(O)c1cc(O)cc(O)c1 (stereo unspecified)
    i	9.5	0.689	?	-1.1&-0.8	0.9	2.2
O=S1(=O)CCN(c2ccccc2CC(c2c[nH]c3ccccc23)c2c[nH]c3ccccc23)CC1
    i	nt	nt	-0.7%	-2.7	-0.5	nt
Cc1cc(C)n2cc(CSc3nnnn3-c3ccccc3C)nc2n1
    nt	4.4	0.738	2.1%	nt	0.1	-8.1

(next part)
Value order: FGF22 binding	RanGTP-Impb inh	E coli growth	Vif A3G	AF4-AF9 inh	HNF4A DNA FP	UCH37 DUB inh
C=CCc1ccc(OCCOc2cccc3cccnc23)c(OC)c1
    i	-2.0	0.715	nt	-5.2	0.5	-0.3
CC(C)(C)Oc1ccccc1Nc1nc(NCCO)nc(N2CCCC2)n1
    i	-2.1	0.694	nt	2.2	-0.3	-0.9
O=C(Oc1cc(-c2ccccc2)no1)c1ccc(Cl)cc1
    nt	-0.5	0.751	-1.1%	nt	2.0	3.4
CC(C)(C(N)=O)N1CCN(c2ncc(C(F)(F)F)cc2Cl)CC1
    nt	1.4	0.696	12.4%	nt	-0.3	4.3
COc1cccc2cc(CC(=O)c3ccc(C)c(C)c3)c(=O)oc12
    i	-0.7	0.697	-13.0%	2.4	7.4	0.8
O=C(c1ccc2nc(Cc3cccc(Cl)c3)oc2c1)N1CCOCC1
    i	-0.9	0.669	4.6%	0.1	0.5	7.4
COc1cc(OC)c(-c2nnc3n(CCc4ccccc4)c(=O)c4ccccc4n23)cc1OC
    i	-0.9	0.712	nt	2.1	nt	0.3
OCCNCc1cccc(-c2ccccc2)c1O
    i	nt	0.671	1.5%	2.5	0.9	-5.9
Cc1ccc(SCc2nc3ncccn3c2Br)cc1
    i	-0.8	0.669	-1.0%	1.1	3.6	-14.5
CC(=O)c1cccc(NC(=O)Nc2nc(C)cc(C)n2)c1
    i	10.2	0.718	-3.0%	-1.1	-2.6	0.7
Clc1cccc(N2CCN(Cc3nc(-c4ccccc4)no3)CC2)c1
    i	-0.4	0.769	-1.8%	0.4	2.7	2.2
COc1ccc(OCc2ccc(C(=O)NN)cc2)cc1
    nt	6.8	0.716	-1.1%	nt	0.2	1.2
Cc1sc2nc(N)sc2c1C
    nt	nt	0.648	14.2%	nt	1.8	nt
COc1cc(C(O)c2nc3ccccc3n2C)cc(OC)c1OC (stereo unspecified)
    nt	-1.8	0.797	-2.2%	nt	1.0	6.0
COc1ccc(C(=O)NC2(C(F)(F)F)NC(=O)N(CCCc3ccccc3)C2=O)c(OC)c1OC (stereo unspecified)
    nt	1.6	0.674	nt	nt	-0.6	1.1
Cc1ccc(-c2ccc(C(=O)NCc3ccc(Cl)cc3)o2)c2ccccc12
    i	1.8	nt	?	2.3	6.3	-8.6

The list is partial; rates above refer to the full screens.
